MARV entry inh: qHTS for inhibitors of binding or entry into cells for Marburg Virus; Marburg virus pseudotyped entry inhibition, cell reporter; control for the full effect not named in the record; about a third of the inactives were read at about 46 µM; Potency, µM (series often up to 37.8 µM), for inactives: top-dose activity change, negative = inhibition, hits mostly inhibitors; 1.8% of 300,000 active; active = well fitted inhibition curve with a large enough effect; inconclusive = small, poorly fitted or top-dose-only effect, or effect the other way; inactive = flat fitted curve, though single readings scatter; tested in HEK293 cells; about a fifth of its hits are not listed in these tables; also: % is scaled to controls: 0 for no effect and ±100 for the full control effect; luciferase read-out
RE007 growth inh: qHTS Assay for Inhibitors of the HIV-1 protein Vpr | 0.21% of 360,000 active | S. pombe RE007 Vpr strain, BacTiter-Glo ATP luminescence, 24 h; control for the full effect not named in the record | Potency, µM (titrated, usually from 92.2 µM), for inactives: top-dose activity change, negative = less growth; active = well fitted falling curve with a large enough effect; inconclusive = small, poorly fitted or top-dose-only effect; inactive = no such curve, though single readings can be large or run the other way;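 also: % is scaled to controls: 0 for no effect and ±100 for the full control effect; nearly all actives have a fitted effect of over 50% in size; the assay follows cell death caused by Vpr and the record does not say whether a fall means rescue or toxicity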
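Fission yeast RE007 carrying one integrated HIV-1 vpr copy, seeded at OD 0.01 in PMG+AL medium with 23 nL pinned compound. Grown 24 h at 30 degrees; viability read by BacTiter-Glo luminescence after 5 min.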
Lassa entry inh: qHTS for Inhibitors of binding or entry into cells for Lassa Virus; Lassa virus pseudotype entry inhibition, cell reporter; control for the full effect not named in the record; Potency, µM (titrated, usually from 37.9 µM), without a hit: top-dose activity change, negative = inhibition, most hits filed as inhibitors; 1.2% of 300,000 active; AID 540256, 2011; active means well fitted inhibition curve with a large enough effect; inconclusive means small, poorly fitted or top-dose-only effect, or effect the other way; inactive means flat fitted curve, though single readings scatter; tested in HEK293 cells; also: % is scaled to controls: 0 for no effect and ±100 for the full control effect; nearly all actives have a fitted effect of over 50% in size; luciferase read-out
Cruzain noTriton: qHTS Assay for Promiscuous and Specific Inhibitors of Cruzain (without detergent) | purified cruzain, Z-FR-AMC fluorescence, no detergent | Potency, µM, without a hit: max response, negative = inhibition, actives largely listed as inhibitors | 2.3% of 200,000 active | AID 1476, 2009;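 also: plate controls were enzyme without inhibitor for no effect and buffer without enzyme for full effect; nearly all actives have a fitted effect of over 40% in size; top concentration of the series not given in the record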
Target sequence (P25779 123-467 limits assumed): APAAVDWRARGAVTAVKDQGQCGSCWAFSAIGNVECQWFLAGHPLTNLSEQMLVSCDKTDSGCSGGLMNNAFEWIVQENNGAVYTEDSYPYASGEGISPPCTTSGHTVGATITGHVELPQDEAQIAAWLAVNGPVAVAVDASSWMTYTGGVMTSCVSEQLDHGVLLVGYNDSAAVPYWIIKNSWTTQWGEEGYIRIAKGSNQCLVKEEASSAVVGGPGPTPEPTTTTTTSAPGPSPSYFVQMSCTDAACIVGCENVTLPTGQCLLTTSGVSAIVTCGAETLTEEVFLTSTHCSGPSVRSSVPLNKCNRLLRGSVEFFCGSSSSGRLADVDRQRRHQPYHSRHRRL
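Purified cruzain at 1.5 nM, pre-incubated 15 min with compound at room temperature in 100 mM sodium acetate pH 5.5, 5 mM DTT, 0.00005% Triton X-100. Reaction started with 2 uM Z-FR-AMC; AMC fluorescence increase over 60 s gives rate.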
Cruzain inh Det: qHTS Assay for Promiscuous and Specific Inhibitors of Cruzain (with detergent); AID 1478, 2009; 0.43% of 200,000 active; purified cruzain, Z-FR-AMC fluorescence, 0.01% Triton; Potency, µM, for inactives: max response, negative = inhibition, usual class: inhibitors;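 also: plate controls were neutral wells for no effect and buffer without enzyme for full effect; nearly all actives have a fitted effect of over 40% in size; top concentration of the series not given in the record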
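Compounds were screened in titration against cruzain (1.5 nM) with 0.01% Triton X-100 to counter colloidal aggregation. Activity was the AMC fluorescence increase over 60 s after adding 2 uM Z-FR-AMC at pH 5.5.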
StopGo reporter: High Throughput Screening for Foot and Mouth Disease Virus Antivirals | Potency, µM (top dose mostly 57.9 µM), without a hit: at the highest dose signal change, negative = less light | 1.2% of 410,000 active | human cells with a luciferase reporter of 2A StopGo recoding; control for the full effect not named in the record | AID 1159524, 2015; active = well fitted falling curve with a large enough effect; inconclusive = small, poorly fitted or top-dose-only effect; inactive = no such curve, though single readings can be large or run the other way; tested in HEK293T cells; also: % is scaled to controls: 0 for no effect and ±100 for the full control effect; nearly all actives have a fitted effect of over 45% in size; luciferase light after 4 h
SARS PLP yeast: qHTS of Yeast-based Assay for SARS-CoV PLP; Potency, µM (series often up to 32.9 µM), for the others: at the top dose activity, positive = growth rescue; S. cerevisiae expressing SARS-CoV PLpro, growth rescue; control for the full effect not named in the record; AID 485353, 2010; 0.19% of 330,000 active; active means well fitted rising curve with a large enough effect; inconclusive means small, poorly fitted or top-dose-only effect; inactive means no such curve, though single readings can be large or run the other way; also: 0% is about no effect; nearly all actives have a fitted effect of over 55% in size; growth read by luminescence after 48 h
NS1 function inh: qHTS Assay for Inhibitors of Influenza NS1 Protein Function; S. cerevisiae slowed by influenza A NS1, growth recovery by OD600; Potency, µM (titrated, usually from 46.1 µM), without a hit: at the highest dose activity, positive = more growth; 0.4% of 270,000 active; AID 2326, 2010; active means well fitted rising curve with a large enough effect; inconclusive means small, poorly fitted or top-dose-only effect; inactive means no such curve, though single readings can be large or run the other way; also: nearly all actives have a fitted effect of over 50% in size
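A cell-based growth assay was used: compounds that relieve NS1-induced slow growth of budding yeast raise OD600. Assay medium was yeast nitrogen base with ammonium sulphate and -URA supplement, pH 6.0, with 2% galactose.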
The depositor's hits bear a star; ? = inconclusive; . = no result given; & = joins results of further samples; [ ] = remark or other dose. Unless noted, calls follow the shape of the dose curve; as a rule, active = well fitted curve in the direction sought with a large enough effect; inconclusive = small, poorly fitted or top-dose-only effect, or another doubt; inactive = no such curve, though single readings can be large; an effect the other way counts as inactive or inconclusive. Potency is read from the fitted curve at half-maximal effect.

Sample of the layout, 2 compounds:
SMILES	MARV entry inh	RE007 growth inh	Lassa entry inh	Cruzain noTriton	Cruzain inh Det	StopGo reporter	SARS PLP yeast	NS1 function inh
O=C(CC1Sc2ccc(C(F)(F)F)cc2NC1=O)Nc1ccc(Cl)c(C(F)(F)F)c1 (stereo unspecified)	1%[46.1 µM]	.	1%[46.1 µM]	-10%	-9.7%	-6%	.	.
COC(=O)c1ccc(CSc2nc3c(cnn3-c3ccc(C)c(C)c3)c(=O)[nH]2)o1	?	-12%	1%	-3%	-2.2%	-3%	20%	-1%

The list itself (from the top)
SMILES	MARV entry inh	RE007 growth inh	Lassa entry inh	Cruzain noTriton	Cruzain inh Det	StopGo reporter	SARS PLP yeast	NS1 function inh
O=C(CC1Sc2ccc(C(F)(F)F)cc2NC1=O)Nc1ccc(Cl)c(C(F)(F)F)c1 (stereo unspecified)	1%[46.1 µM]	.	1%[46.1 µM]	-10%	-9.7%	-6%	.	.
COC(=O)c1ccc(CSc2nc3c(cnn3-c3ccc(C)c(C)c3)c(=O)[nH]2)o1	?	-12%	1%	-3%	-2.2%	-3%	20%	-1%
O=S(=O)(c1cccc(-c2cn3cccnc3n2)c1)N1CCCCCC1	-16%	-14%	2%	-10%	-15%	-29%	-5%	-2%
Cc1ccc(C(=O)NS(=O)(=O)c2ccc(C)cc2)cc1	3%	3%	.	.	.	-2%	1%	5%
C=CCn1c(C)nnc1SCC(=O)Nc1ccc2c(c1)OCCO2	15%	5%	-7%	.	.	-8%	-1%	.
COC(=O)c1[nH]c2c(c1C)C(=O)CC(c1cccc(OC)c1)C2 (stereo unspecified)	?	0%	?	.	.	-21%	0%	0%
COc1cccc(-n2nc(-c3ccnn3-c3ccc(C)cc3)c(=O)n(C)c2=O)c1	-24%	0%	-23%	11%	-4.5%	?	-3%	0%
COc1ccc(OCCC(=O)Nc2cc(C)on2)cc1	16%	1%	-9%	1%	5.3%	-17%	-11%	-4%
Cc1ccc(CCNS(=O)(=O)c2c(C)nc3sccn3c2=O)cc1	.	-1%	.	.	.	-3%	5%	1%
CCC(C(=O)NCc1ccco1)N(C(=O)CNS(=O)(=O)c1ccccc1)c1ccc(F)cc1 (stereo unspecified)	1%[46.1 µM]	-3%	-8%	.	.	1%	-1%	3%
CC(=O)N(c1cc(C)ccc1C)c1ccccc1[N+](=O)[O-]	?	13%	19%[46.1 µM]	.	.	-13%	.	.
CCCOc1ccc(/C(O)=C2/C(=O)C(=O)N(CCN(C)C)C2c2ccncc2)cc1 (stereo unspecified)	20%	2%	12%	.	.	8%	.	.
COc1ccccc1N1C(=O)C2C(C(=O)c3ccccc3)=NN(c3ccccc3)C2C1=O (stereo unspecified)	8%	-3%	26%	.	.	-7%	-4%	-34%
CCOC(=O)Nc1n[nH]c(NC(=O)OCC)c1[N+](=O)[O-]	-6%[46.1 µM]	-18%	?	.	.	2%	5%	.
CCOc1ccc(-c2cc(CCCC(=O)NCCc3ccc(Cl)cc3)no2)cc1	?	.	-8%[46.1 µM]	2%	-0.6%	-12%	.	.
COC(=O)c1cnn(-c2cc(Oc3ccccc3)ncn2)c1N	2%	-2%	?	-11%	6.7%	55%[activator]	12%	-1%
Cc1[nH]c2ccccc2c1C(=O)COC(=O)c1c(-c2c(F)cccc2Cl)noc1C	?	.	-26%	3%	-10.0%	32µM*	-73%	5%
Cc1cc(C)c(NC(=O)CN2C(=O)CCn3nc(-c4cccn4C)cc32)c(C)c1	.	.	?	?	-0.4%	9%	.	.
CC(C)N(Cc1nc(-c2ccccc2)no1)C(=O)CSc1ccccc1	-21%	8%	-4%	-16%	-9.6%	-16%	-1%	-54%
Cc1cc(C)n(-c2c(F)c(F)c(CO)c(F)c2F)n1	11%	-1%	8%	2%	1.4%	.	.	7%
CC(C)N(Cc1nc(-c2ccc3c(c2)OCO3)no1)Cc1nccn1C	.	-11%	.	.	.	20%	0%	-9%
CCOc1c(O)ccc(C2NC(=O)N(C)C(C)=C2C(=O)OC)c1[N+](=O)[O-] (stereo unspecified)	2%	1%	-1%	.	.	19%	1%	6%
Cc1ccc(S(=O)(=O)NCC(=O)NCc2cc(=O)n(C)c(=O)n2C)cc1	.	-4%	.	.	.	-11%	-1%	-4%
CC(C)C(NC(=O)c1ccc(F)cc1)C(=O)N1CCOCC1 (stereo unspecified)	-8%	-8%	13%	.	.	0%	0%	.
CCOC(=O)C1=C(CC)Nc2ccccc2N/C1=N\S(=O)(=O)c1ccc2ccccc2c1	?	5%	?	.	.	-20%	-1%	.
Cc1ccc(-c2nonc2NC(=O)c2ccco2)cc1	.	-17%	.	.	.	-8%	-2%	-72%
COc1ccc(CCC(=O)NCCc2nc3ccccc3[nH]2)cc1	?	3%	12%[46.1 µM]	.	.	-11%	-7%	.
COc1ccc(CCC(=O)N2CCCc3ccccc32)cc1	?	12%	.	.	.	11%	-3%	-6%
CCc1cc(C(=O)NNC(=O)c2csc(N3CCOCC3)n2)sc1C	-2%[46.1 µM]	12%	3%	.	.	-11%	1%	.
Cc1cccc(NC(=O)CSc2nnc(CNC(=O)c3ccc(S(=O)(=O)N(C)C)cc3)n2-c2cccc(C)c2)c1	-36%	-20%	14µM*	?	-0.1%	31%[activator]	19%	-16%
O=C(COc1ccc(Cl)cc1)Nc1ccc(O)c(-c2nc3ccccc3s2)c1	.	.	-2%[46.1 µM]	2%	1.7%	-15%	.	.
COc1cc(C(=O)N2CCN(C(=O)c3ccco3)CC2)c([N+](=O)[O-])cc1OC	.	-3%	.	.	.	-15%	0%	5%
CCc1cccc(C)c1NC(=O)CCCn1c(=O)c2cccn2c2cccnc21	.	6%	5%[46.1 µM]	-6%	0.2%	-5%&-9%	-2%	16%
COc1ccc(N2CCN(Cc3nnnn3C3CCCCC3)CC2)cc1	4%[46.1 µM]	-10%	?	.	.	-19%	1%	-59%
CC(C)NC1CCC(Nc2ccnc3cc(Cl)ccc23)CC1 (stereo unspecified)	2.8µM*	1%	?	.	.	-32%	.	.
CC(O)Cc1cn([C@@H](CCCCNC(=O)OC(C)(C)C)C(=O)N2CCN(C(=O)OC(C)(C)C)CC2)nn1 (stereo partly specified)	.	0%	.	.	.	-5%	0%	0%
CC1=C[C@H](C)[C@H](c2c(F)cccc2Cl)CC1=O	.	12%	.	.	.	-8%	0%	13%
CC(C)CCc1noc(CN(C)CCC2CCOCC2)n1	0%[46.1 µM]	3%	-12%	.	.	-17%	-4%	-3%
Cc1cc(NC(=O)NCc2ccco2)ccc1NC(=O)NCc1ccco1	-2%[46.1 µM]	10%	-12%[46.1 µM]	.	.	-8%	.	.
O=C(CSc1nnc(CNC(=O)c2ccco2)o1)Nc1cccc(Cl)c1	.	-6%	.	.	.	3%	8%	-5%
Cn1c(CCNC(=O)C(C)(C)C)nc2ccccc21	1%	-4%	-3%	4%	4.4%	2%	1%	1%
CC(C)N1C(=O)CCC1C(=O)O (stereo unspecified)	3%	4%	10%	-1%	0.1%	0%	-20%	15%
O=C(c1cc2cc(Cl)ccc2o1)N1CCCC1	3%[46.1 µM]	-8%	-2%	.	.	43%[activator]	-11%	-14%
O=C(COC(=O)CCC(=O)c1cccs1)Nc1ncc(Cl)cc1Cl	?	.	0%	3%	-4.8%	3%	14%	3%
CSc1ncc(CN2CCN(CC=C(C)C)C(CCO)C2)cn1 (stereo unspecified)	11%[46.1 µM]	-23%	17%[46.1 µM]	.	.	23%	-1%	2%
COc1ccc(C(c2nnnn2C(C)(C)C)N2CCN(c3nc4ccccc4s3)CC2)cc1 (stereo unspecified)	19%&19%	17%	-3%	6%	-4.7%	-22%	-22%	15%
COc1ccc(CCNC(=O)c2cc3c(=O)n4cccc(C)c4nc3n(Cc3ccco3)c2=N)cc1OC	?	-7%	6%	.	.	?	15%	?
Cc1c(C(=O)N2CC3(CC(c4cccc(NC(=O)[C@H]5CCC(=O)N5)c4)=NO3)C[C@@H]2C(N)=O)cc([N+](=O)[O-])cc1[N+](=O)[O-] (stereo partly specified)	-6%	7%	.	.	.	-10%	1%	-2%
CCCCc1nnc2c(N(C)S(=O)(=O)c3ccccc3)nc3ccccc3n12	?	1%	0%	.	.	-11%	5%	3%
N#CC1=C(N)Oc2cc(N)ccc2C1c1ccccc1Cl (stereo unspecified)	.	-4%	.	.	.	-7%	0%	26%

Remaining list, next part
SMILES	MARV entry inh	RE007 growth inh	Lassa entry inh	Cruzain noTriton	Cruzain inh Det	StopGo reporter	SARS PLP yeast	NS1 function inh
Cc1ccc(-c2nn(Cc3ccccc3)cc2C(=O)NCC2CCCO2)cc1 (stereo unspecified)	5%	4%	4%	.	.	27%	-8%	.
Cc1ccc(NC(=O)CSc2nc(=O)n(Cc3ccncc3)c3c2CCC3)cc1Cl	.	.	6%[46.1 µM]	1%	-1.3%	-14%	.	.
Cc1ccc(-n2nc3c(=O)n(C(C)C(=O)NCc4ccc(Cl)cc4)nc(C)c3c2C)cc1 (stereo unspecified)	.	11%	.	.	.	?	-1%	-26%
Cc1ccc(-c2nn(-c3ccccc3)cc2C(N)=O)o1	0%[46.1 µM]	1%	0%	.	.	11%	-2%	-1%
COc1ccc(OC)c(NC(=O)CSc2nnnn2-c2ccccc2F)c1	0%	23%	-6%	3%	-2.5%	-13%	-4%	3%
O=C(NC(=S)N(CC1CCC1)CC1CCCO1)c1cccc([N+](=O)[O-])c1 (stereo unspecified)	.	10%	.	.	.	48%[activator]	0%	-1%
CCOc1ccccc1NC(=O)C(NCCN(C)C)c1ccccc1 (stereo unspecified)	6%[46.1 µM]	-17%	-12%[46.1 µM]	.	.	0%	-2%	.
COCCCn1nnnc1SCC(=O)N1CCN(C(=O)c2ccco2)CC1	.	7%	.	.	.	-14%	1%	4%
COc1cc(S(=O)(=O)NCc2ccccc2)ccc1F	0%	6%	11%	-8%	-0.7%	41%[activator]	-5%	-1%
Cn1c(SCC#N)nnc1-c1ccc2c(c1)OCO2	-9%	6%	-8%	-2%	-2.3%	-21%	2%	4%

Screening results as filed in PubChem BioAssay.
